Source: PubChem
SARS PLP yeast: blocks SARS-CoV papain-like protease in a yeast assay. AID 485353. Potency, µM (highest dose often 32.9 µM), inactives show at the top dose activity, positive = growth rescue. actives 0.19% (n = 330,000). S. cerevisiae expressing SARS-CoV PLpro, growth rescue; control for the full effect not named in the record; active means well fitted rising curve with a large enough effect; inconclusive means small, poorly fitted or top-dose-only effect; inactive means no such curve, though single readings can be large or run the other way; further: 0% is about no effect; nearly all actives have a fitted effect of over 55% in size; growth read by luminescence after 48 h
Cruzain Triton: blocks cruzain activity in presence of Triton detergent; P25779; purified cruzain, Z-FR-AMC fluorescence, 0.01% Triton; Potency, µM, without a hit: max response, negative = inhibition, usual class: inhibitors; actives 0.43% (n = 200,000); AID 1478;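 further: plate controls were neutral wells for no effect and buffer without enzyme for full effect; nearly all actives have a fitted effect of over 40% in size; top concentration of the series not given in the record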
Target sequence (P25779 123-467 limits assumed): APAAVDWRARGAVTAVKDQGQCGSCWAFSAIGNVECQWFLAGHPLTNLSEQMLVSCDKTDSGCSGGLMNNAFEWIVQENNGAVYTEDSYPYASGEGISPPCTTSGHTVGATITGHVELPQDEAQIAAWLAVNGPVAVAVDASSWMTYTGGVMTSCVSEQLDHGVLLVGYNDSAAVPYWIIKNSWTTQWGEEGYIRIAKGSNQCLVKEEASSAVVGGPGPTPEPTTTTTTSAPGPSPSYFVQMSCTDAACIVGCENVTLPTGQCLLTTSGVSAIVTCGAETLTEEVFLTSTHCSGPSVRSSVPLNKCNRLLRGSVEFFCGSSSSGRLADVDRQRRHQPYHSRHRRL
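Z-FR-AMC hydrolysis (2 uM substrate) by cruzain (1.5 nM) monitored kinetically at ex 360/em 450 nm after 15 min room-temperature compound exposure; 0.01% Triton X-100, pH 5.5, 5 mM DTT.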
MARV entry inh: blocks Marburg virus binding to or entry into cells; AID 540276; Potency, µM (highest dose often 37.8 µM), inactives show top-dose activity change, negative = inhibition, actives largely listed as inhibitors; Marburg virus pseudotyped entry inhibition, cell reporter; control for the full effect not named in the record; about a third of the inactives were read at about 46 µM; actives 1.8% (n = 300,000); active = well fitted inhibition curve with a large enough effect; inconclusive = small, poorly fitted or top-dose-only effect, or effect the other way; inactive = flat fitted curve, though single readings scatter; tested in HEK293 cells; about a fifth of its hits are not listed in these tables; further: on the % scale 0 is the no-effect control and ±100 the full control effect; luciferase read-out
RE007 growth inh: less growth of the S. pombe RE007 Vpr strain | Potency, µM (doses to about 92.2 µM), for the others: at the top dose activity change, negative = less growth | S. pombe RE007 Vpr strain, BacTiter-Glo ATP luminescence, 24 h; control for the full effect not named in the record | actives 0.21% (n = 360,000); active = well fitted falling curve with a large enough effect; inconclusive = small, poorly fitted or top-dose-only effect; inactive = no such curve, though single readings can be large or run the other way;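 further: on the % scale 0 is the no-effect control and ±100 the full control effect; nearly all actives have a fitted effect of over 50% in size; the assay follows cell death caused by Vpr and the record does not say whether a fall means rescue or toxicity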
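Fission yeast strain RE007, carrying one chromosomally integrated HIV-1 vpr copy, was seeded at OD 0.01 in PMG+AL medium with 23 nL pinned compound. After 24 h at 30 °C and 99% humidity, viability was read by BacTiter-Glo luminescence.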
2A StopGo: FMDV 2A StopGo reporter, luciferase signal. actives 1.2% (n = 410,000). human cells with a luciferase reporter of 2A StopGo recoding; control for the full effect not named in the record. Potency, µM (highest dose often 57.9 µM), for inactives: at the highest dose signal change, negative = less light. AID 1159524; active = well fitted falling curve with a large enough effect; inconclusive = small, poorly fitted or top-dose-only effect; inactive = no such curve, though single readings can be large or run the other way; tested in HEK293T cells; further: on the % scale 0 is the no-effect control and ±100 the full control effect; nearly all actives have a fitted effect of over 45% in size; luciferase light after 4 h
Lassa entry inh: Lassa virus entry inhibition. Lassa virus pseudotype entry inhibition, cell reporter; control for the full effect not named in the record. Potency, µM (highest dose often 37.9 µM), inactives show at the top dose activity change, negative = inhibition, usual class: inhibitors. actives 1.2% (n = 300,000). AID 540256; active means well fitted inhibition curve with a large enough effect; inconclusive means small, poorly fitted or top-dose-only effect, or effect the other way; inactive means flat fitted curve, though single readings scatter; tested in HEK293 cells; further: on the % scale 0 is the no-effect control and ±100 the full control effect; nearly all actives have a fitted effect of over 50% in size; luciferase read-out
Cruzain inh noDet: cruzain (T. cruzi) inhibition without detergent. actives 2.3% (n = 200,000). Potency, µM, without a hit: max response, negative = inhibition, most hits filed as inhibitors. P25779. purified cruzain, Z-FR-AMC fluorescence, no detergent;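 further: plate controls were enzyme without inhibitor for no effect and buffer without enzyme for full effect; nearly all actives have a fitted effect of over 40% in size; top concentration of the series not given in the record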
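Purified cruzain at 1.5 nM, pre-incubated 15 min with compound at room temperature in 100 mM sodium acetate pH 5.5, 5 mM DTT, 0.00005% Triton X-100. Reaction started with 2 uM Z-FR-AMC; AMC fluorescence increase over 60 s gives rate.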
NS1 inh: influenza NS1 inhibition. Potency, µM (titrated, usually from 46.1 µM), for inactives: top-dose activity, positive = more growth. actives 0.4% (n = 270,000). AID 2326. S. cerevisiae slowed by influenza A NS1, growth recovery by OD600; active means well fitted rising curve with a large enough effect; inconclusive means small, poorly fitted or top-dose-only effect; inactive means no such curve, though single readings can be large or run the other way; further: nearly all actives have a fitted effect of over 50% in size
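Growth recovery, yeast-based: influenza A NS1 expressed in S. cerevisiae causes slow growth, and suppressors are detected by OD600. The parent strain without NS1 is used as positive control.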
The depositor's hits bear a star; ? = inconclusive; · = not tested or not shown; & = joins results of further samples; [ ] = remark or other dose. Unless noted, the call rests on the fitted dose curve; in most records, active means well fitted curve in the direction sought with a large enough effect; inconclusive means small, poorly fitted or top-dose-only effect, or another doubt; inactive means no such curve, though single readings can be large; an effect the other way counts as inactive or inconclusive. Potency means the concentration at half of the fitted maximal effect. Compounds as they come; any-hit rate near 4.8%.

Structure,SARS PLP yeast,Cruzain Triton,MARV entry inh,RE007 growth inh,2A StopGo,Lassa entry inh,Cruzain inh noDet,NS1 inh
COc1cc(NC(=O)c2cc3c(=O)oc4ccc(C)cc4c3s2)cc(OC)c1OC,·,1.8%,29.2%[46.1 µM],·,-11.7%,7.8%[46.1 µM],8.4%,·
CCOCCCN1CN(S(=O)(=O)c2ccc(Cl)cc2)c2nc3ccccc3nc21,-11.3%,-2.3%,-18.3%,0.4%,13.7%,-1.7%,27.9%,-44.8%
O=C(NCc1ccccc1)C(c1cccs1)N(Cc1cccs1)C(=O)c1cnccn1 (stereo not drawn),-3.6%,4.3%,-25.9%,-12.3%,1.4%,?,8.4%,-3.6%
CC1(C)Cc2cccc(OCC(=O)Nc3ccc(S(N)(=O)=O)cc3)c2O1,-2.2%,·,-3.6%,7.9%,?,0.6%,·,·
Cc1sc2nc(SCC(=O)N(CCO)CCO)n(C3CCCCC3)c(=O)c2c1C,9.2%,-9.2%,-8.2%,8.7%,-21.0%,5.7%,?,-9.1%
CCCN(Cc1cc2cc(C)ccc2[nH]c1=O)C(=O)c1cccc(OC)c1,-3.2%,-7.7%,?,5.2%,?,?,-3.3%,-53.1%
CCNc1nc(NCC)nc(Oc2ccc(OCC)nn2)n1,-0.3%,1.1%,20.0%,-4.8%,·,12.5%,9.5%,?
CC(=O)Nc1ccc(NC(=O)C(C)Sc2nc3ccccc3c(=O)n2CC2CCCO2)cc1 (stereo not drawn),·,·,22.3%,2.7%,-12.2%,-6.3%,·,·
CCC(=O)N1CCN(c2nc3c(C)cccc3s2)CC1,·,-5.8%,·,·,30.8%[activator],3.3%[46.1 µM],3.8%,·
CCCCCn1c(CCNC(=O)c2cccs2)nc2ccccc21,-7.6%,-21.8%,?,6.8%,·,-13.5%,12.6µM*,-49.6%
CCOc1ccc2nc(N3CCCC(C(=O)Nc4cc(Cl)c(OC)cc4OC)C3)sc2c1 (stereo not drawn),·,1.7%,?,·,33.9%[activator],·,-12.8%,·
O=C(Nc1cc2c3c(c1)CC(=O)N3CCC2)c1ccco1,-2.5%,·,7.5%[46.1 µM],3.8%,-5.9%,11.0%,·,·

Individual results from the entries so far:
Under 2A StopGo, CCOCCCN1CN(S(=O)(=O)c2ccc(Cl)cc2)c2nc3ccccc3nc21 reads 13.7%
Under Cruzain Triton, CCOc1ccc2nc(N3CCCC(C(=O)Nc4cc(Cl)c(OC)cc4OC)C3)sc2c1 (stereo not drawn) reads 1.7%

Later entries.
Structure,SARS PLP yeast,Cruzain Triton,MARV entry inh,RE007 growth inh,2A StopGo,Lassa entry inh,Cruzain inh noDet,NS1 inh
COCCCNC(=O)c1cn(C)c(=O)c2c1c1ccccc1n2C,-0.1%,·,0.1%[46.1 µM],-13.5%,-2.1%,-3.3%[46.1 µM],·,1.0%
COc1ccc(Cl)cc1S(=O)(=O)NC(C)C(=O)NCc1ccccn1 (stereo not drawn),-0.3%,·,13.1%[46.1 µM],7.8%,4.3%,?,·,-12.4%
COc1ccc(N(Cc2cc(=O)[nH]c3ccccc23)C(=O)CCl)cc1,2.0%,·,?,5.1%,20µM*,?,·,7.7%
COc1cccc(C(=O)Nc2ccccc2C(=O)NCC2CCCO2)c1 (stereo not drawn),-2.4%,·,·,-13.0%,-9.8%,·,·,-55.9%
O=C(CN1C(=O)S/C(=C\c2ccc(Cl)cc2)C1=O)NC1C=CS(=O)(=O)C1 (stereo not drawn),10.4%,·,-12.5%[46.1 µM],1.0%,-5.7%,?,·,5.4%
COC(=O)c1ccc(NC(=O)CN2C(=O)CC(c3ccccc3)Sc3ccccc32)cc1 (stereo not drawn),·,-3.1%,-24.1%[46.1 µM],·,20.4%,·,-3.2%,·
CCOC(=O)c1sc(Nc2ccc(OCC)cc2)nc1C,-0.9%,·,·,-12.7%,18.9%,·,·,0.0%
COc1ccc(NC2CCCN(C(=O)COc3ccc(Cl)cc3C)C2)cc1OC (stereo not drawn),?,·,-15.7%,?,?,-9.6%,·,6.4%
O=c1cc(CN2CC(O)Cc3ccc4ccccc4c32)nc2sccn12 (stereo not drawn),-0.9%,·,-12.6%[46.1 µM],-7.8%,-23.8%,-2.8%[46.1 µM],·,2.4%
Cc1ccc(Nc2nnc(SCC(=O)NCc3ccco3)s2)cc1,7.9%,0.1%,-1.9%,3.8%,34.9%[activator],-14.0%,-5.6%,-2.6%
O=C(NCCC1=CCCCC1)c1ccc(Cl)c(S(=O)(=O)Nc2ccccc2)c1,-8.0%,-4.2%,?,-17.0%,·,?,-2.2%,12.5%
COc1cc(/C=N/n2cnnc2-n2nc(C)cc2C)cc([N+](=O)[O-])c1O,0.0%,·,·,1.7%,-1.8%,·,·,1.7%
CC(=O)N1CCC(C(=O)OCc2ccccc2F)(c2ccccc2)CC1,-3.0%,·,?,9.7%,?,-24.8%,·,-4.1%
CCC(=O)c1c[nH]c(C(=O)NCc2cccc(C(F)(F)F)c2)c1,-0.2%,·,29.1%,14.3%,11.9%,?,·,-3.5%
COc1ccc(C2CC(c3cccs3)=NN2C(=O)CCl)cc1OC (stereo not drawn),-4.7%,·,?,20.6%,?,?,·,-1.8%
COc1cc(O)ccc1/C=N/NC(=O)c1ccc([N+](=O)[O-])cc1,-2.6%,·,-13.4%[46.1 µM],9.5%,5.1%,2.7%,·,·
Cc1cc(C(=O)O)ccc1[N+](=O)[O-],2.2%,5.4%,·,-8.2%,-11.8%,·,0.6%,·
O=C(/C=C/c1ccc(Cl)cc1Cl)N1CCc2ccccc21,4.3%,-3.0%,?,-7.4%,18.9%,?,?,5.4%
COc1ccc(C(=O)C[n+]2ccc3c(c2)nnn3-c2ccccc2)cc1,0.9%,·,?,6.6%,19.0%,24.9%,·,·
O=c1c2c(nc3c(-c4cccc(Br)c4)c[nH]n13)CCCC2,7.4%,4.2%,6.3%,8.1%,-7.0%,1.9%,-7.7%,15.2%
Cc1ccc(Nc2c(-c3ccsc3)nc3cccc(C)n23)cc1,·,-14.1%,-7.4%&-7.4%[46.1 µM],·,-16.5%,-1.6%[46.1 µM],8.7%,·
CCOC(=O)N1CCOCCOCCN(C(=O)OCC)CCOCC1,4.0%,8.4%,6.1%[46.1 µM],5.3%,-12.9%,10.4%,-3.6%,-11.6%
O=C(Nc1ccccc1)Oc1ccccc1,0.3%,-1.2%,6.8%&6.8%,-5.6%,0.0%,?,9.5%,1.9%
CC(=O)Nc1cc2c(cc1Cl)Cc1cc(Cl)ccc1-2,·,·,20.9%[46.1 µM],0.2%,-7.4%,-2.3%[46.1 µM],·,·
CCOc1ccc(NC(=O)CN(C)S(=O)(=O)c2cccs2)cc1,-1.2%,3.4%,24.8%,-1.7%,19.6%,-5.3%,1.5%,-6.4%
CC(C)(C)CN1CCNC(=O)C1CC(=O)NCCc1ccccc1F (stereo not drawn),-0.3%,·,-1.8%[46.1 µM],-3.0%,-6.6%,0.3%[46.1 µM],·,-1.2%
CC(=O)NCc1nc2ccccc2n1Cc1ccccc1C,-4.3%,1.2%,·,3.0%,-26.5%,·,3.8%,2.5%
Cc1noc(C)c1COc1cccc(C(=O)NCCc2c[nH]c3ccccc23)c1,-1.3%,·,?,8.6%,-18.0%,10µM*,·,·
C(#CCN1CCCC1)CC(c1ccccc1)c1ccccc1,-0.2%,·,?,-16.7%,?,?,·,-2.8%
Cc1ccc(Cn2c(=O)c3c(nc4n3CCN4c3cc(C)cc(C)c3)n(C)c2=O)cc1,·,-1.5%,·,·,21.8%,-2.2%[46.1 µM],2.8%,·
COc1cccc(NC(=O)COc2ncnc3sc(C)c(C)c23)c1,-1.8%,1.4%,-24.0%,31.8%,-5.1%,16.0%,-3.1%,-9.1%
COc1ccccc1NS(=O)(=O)c1cc(C(=O)NCc2cccnc2)ccc1C,-3.4%,·,?,-0.7%,26.4%,-28.6%,·,·
COCCCNC(=S)NC1CC2CCC(C1)N2Cc1ccccc1 (stereo not drawn),0.5%,·,?,2.9%,-1.2%,12.9%,·,7.6%
COc1cc(C(=O)NCc2ccc(OCCN(C)C)cc2)cc(OC)c1OC,·,3.5%&-3.6%,·,64.1%[18.4 µM],-29.2%&10.2%,·,1.2%&-6.4%,·
O=C(Nc1cc(C(F)(F)F)ccc1-n1cncn1)c1ccc(Br)cc1,-5.3%,3.3%,?,-21.0%,-16.4%,-12.8%,4.0%,-19.5%
Cc1cc(=O)oc2cc(OC(C)C(=O)NCC3CCC(C(=O)O)CC3)c(Cl)cc12 (stereo not drawn),6.7%,·,·,-6.5%,-13.7%,·,·,3.6%
CCOc1c(Nc2cccc(Cl)c2)c(=O)c1=O,-0.7%,·,·,3.0%,?,·,·,-7.0%
CC(C)NC(=S)NN(c1ccccc1)c1ccccc1,26.2%,-0.6%,4.2%,-5.6%,?,?,-11.8%,13.5%
O=C(Nc1cccc(S(=O)(=O)N2CCCC2)c1)c1ccncc1,2.2%,·,·,11.9%,-8.1%,·,·,15.5%
C/C(=N\NC(=O)C(=O)Nc1ccc(C)cc1)c1ccncc1,-16.2%,1.0%,-16.2%,21.8%,-5.0%,-6.7%,-8.3%,-6.1%
COc1cccc(S(=O)(=O)NCc2ccc(C(=O)N3CCN(Cc4ccccc4)CC3)cc2)c1,-5.8%,·,?,5.4%,-15.8%,?,·,-17.6%
